RGS16-Gao HTS – regulators of human RGS16-Galphao interaction. O15492+P09471. bead-based flow cytometry RGS16-Galphao binding, fluorescence; actives lie on both sides. binding response (% of control), % at 10 µM. hit rate 0.38% among 220,000. AID 1441;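 active = below 25% or above 175%, edge rows of some plates excepted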;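 note: Galphao activated by GDP with aluminum fluoride before binding; 100% = wells without compound and 0% = beads without RGS; some results beyond the cut were filed as inactive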
Target sequence (O15492 whole entry, looked up): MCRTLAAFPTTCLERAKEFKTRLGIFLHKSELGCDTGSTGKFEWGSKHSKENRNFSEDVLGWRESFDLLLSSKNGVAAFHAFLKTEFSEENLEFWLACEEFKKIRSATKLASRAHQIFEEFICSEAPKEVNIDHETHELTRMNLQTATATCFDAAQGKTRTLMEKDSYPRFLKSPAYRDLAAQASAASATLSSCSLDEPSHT
Target sequence (P09471 whole entry, looked up): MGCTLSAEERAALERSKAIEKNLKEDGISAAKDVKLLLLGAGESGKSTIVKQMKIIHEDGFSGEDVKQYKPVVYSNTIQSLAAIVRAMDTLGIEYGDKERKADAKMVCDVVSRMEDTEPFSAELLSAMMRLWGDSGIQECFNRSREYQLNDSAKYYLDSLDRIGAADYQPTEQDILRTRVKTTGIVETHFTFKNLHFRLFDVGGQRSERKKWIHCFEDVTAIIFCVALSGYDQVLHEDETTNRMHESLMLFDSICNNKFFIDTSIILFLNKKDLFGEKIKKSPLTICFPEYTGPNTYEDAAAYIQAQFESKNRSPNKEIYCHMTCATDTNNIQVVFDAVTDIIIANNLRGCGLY
Insulin prom inh – TRM-6 insulin promoter activity inhibition; TRM-6 cells (human fetal islet line), insulin promoter-eGFP reporter, imaging; reporter expression induced with tamoxifen; inhibition, % at 2 µM; hit rate 0.9% among 130,000; AID 1273;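 active = inhibition above the mean plus 3 SD, with well images judged a real hit on visual review, cut at about 60% in these data, passing the limit was not always enough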
GALR2 ag – activates the human galanin receptor 2; activation, %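 (tested at 5 µM)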; hit rate 0.48% among 140,000; AID 803; O43603; GALR2-expressing cells, agonist activation read-out;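 active = above mean plus 3 SD of all compounds, about 5% in these data, not always enough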;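 note: 0% = vehicle buffer wells and 100% = reference agonist at full effect; tested in CHO reporter cells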
Target sequence (O43603 whole entry, looked up): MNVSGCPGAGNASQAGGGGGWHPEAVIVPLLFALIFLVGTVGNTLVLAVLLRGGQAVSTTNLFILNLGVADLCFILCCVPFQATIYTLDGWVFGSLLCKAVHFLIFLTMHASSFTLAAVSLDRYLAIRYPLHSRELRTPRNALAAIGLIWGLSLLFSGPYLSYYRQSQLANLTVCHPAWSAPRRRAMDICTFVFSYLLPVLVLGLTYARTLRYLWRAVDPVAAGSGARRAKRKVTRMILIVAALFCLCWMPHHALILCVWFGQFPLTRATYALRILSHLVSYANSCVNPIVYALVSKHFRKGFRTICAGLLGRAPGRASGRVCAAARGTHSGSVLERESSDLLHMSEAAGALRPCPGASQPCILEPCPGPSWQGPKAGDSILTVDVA
HSV augment – increases HSV replication in cells; HSV replication augmentation in cells, fold increase; maximum fold increase; hit rate 0.005% among 220,000;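 active = peak rise of 1.5-fold or more in the series; tested in PC3 cells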;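 note: first round at 10 µM; read as green reporter fluorescence; hits show the peak of a series up to 25 µM; 1 = signal of infected wells without compound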
PKD1 inh – blocks activity of human protein kinase D1. Q15139. PKD1 kinase fluorescence polarization assay. inhibition, %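 (about 10 µM by stock and volumes)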. hit rate 0.056% among 200,000. AID 797;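 active = inhibition of 50% or more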;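 note: controls were vehicle for no effect and a reference inhibitor for full effect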
Insulin prom inh cell count – recorded beside Insulin prom inh, whose call it bears; normalized cell count, %; measured here: cell count, toxicity; reference of the scale not given here;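 cells exposed to compound for 48 h; stained nuclei by imaging scaled within each plate; lower means fewer cells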
HSV augment primary fold – further read-out of HSV augment, marked with its call; fold increase; compound at 10 µM; measured here: primary screen fold increase 10 uM; tested in PC3 cells;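 GFP signal in the first replicate; 1 = infected wells without compound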
* marks the source's active call; other numbers are inactive results; i = inactive; / = no result given.

No.	structure	HSV augment	HSV augment primary fold	PKD1 inh	GALR2 ag
1	COCCn1c(-c2cccs2)csc1=Nc1cccnc1	i	1	1	/
2	COc1ccccc1NC(=O)Nc1nn(C)c2cccc(OC)c12	i	0.83	/	/
3	CCCOc1ccc(C(=O)N2CC3(CC(c4cccc(NC(=O)[C@@H]5CCC(=O)N5)c4)=NO3)C[C@H]2C(=O)NC2(C(N)=O)CC2)cc1 (stereo partly drawn)	i	0.88	-6	-1.9
4	O=C(CNc1ccc2ccccc2c1)N/N=C/c1ccccn1	i	1	/	/
5	O=C(Nc1ccc(NC(=O)c2cccs2)cn1)c1ccccc1	i	0.99	-3	/
6	O=C1C2C3c4ccccc4C(c4ccccc43)[C@@H]2c2nc3ccccc3n21 (stereo partly drawn)	i	1.1	-8	-1.3
7	O=C(CCNc1cccc(Cl)c1)c1ccco1	i	0.93	-5	-1.4
8	Cc1ccc(N2CCN(C3=NC(=O)/C(=C\c4cccs4)S3)CC2)cc1	i	0.91	-3	-2.9
9	COc1cc2c(cc1OC)C(c1cc(OC)c(OC)c(OC)c1)NCC2 (stereo not drawn)	i	0.85	-7	0.2
10	CN(Cc1ccccc1)C(=O)c1ccccc1NC(=O)c1ccccc1	i	1.5	-5	-1.3

No.	Insulin prom inh	Insulin prom inh cell count	RGS16-Gao HTS
1	/	/	98
2	/	/	103
3	/	/	95
4	/	/	105
5	6	116	98
6	0	114	88
7	/	/	101
8	-15	134	103
9	-6	133	101
10	/	/	102

Next records follow:
No.	structure	HSV augment	HSV augment primary fold	PKD1 inh	GALR2 ag
11	Cc1cnc(C(=O)N2CCN(c3ccc(C(F)(F)F)cn3)CC2)cn1	i	0.99	/	/
12	CSCCC(NC(=O)c1ccc(Cl)cc1)C(=O)O (stereo not drawn)	i	0.92	0	/
13	Cc1c(NC(=O)c2c(NC(=O)CNC3CC3)sc3c2CCCC3)c(=O)n(-c2ccccc2)n1C	/	/	-2	0.3
14	Cc1ccnc(NC(=O)/C=C/c2ccccc2Cl)c1	i	0.88	-6	-0.4
15	CCOCCn1c(CN2CCN(c3ccc(OC)cc3)CC2)nc2c1c(=O)n(C)c(=O)n2C	i	0.96	-11	-1.8
16	Cc1ccc(-n2ncc3c(=O)[nH]c(SCC(=O)N4CCCCC4)nc32)cc1	i	0.97	-18	-2.1
17	O=C(COC(=O)c1ccccc1C(=O)c1ccccc1)Nc1ccc(SC(F)F)cc1	i	0.94	-3	-0.6
18	COC(=O)c1scc(C)c1-n1ccc(C(=O)C(=O)N(C)C)c1	i	0.94	-5	/
19	COc1ccc(CCNC(=O)c2ccc(-c3cccc([N+](=O)[O-])c3)o2)cc1OC	i	0.9	-2	/
20	O=C(CCN1C(=O)c2ccccc2C1=O)Nc1ccc(F)cc1F	i	1.3	-13	-0.2

No.	Insulin prom inh	Insulin prom inh cell count	RGS16-Gao HTS
11	/	/	95
12	/	/	97
13	/	/	101
14	-36	117	77
15	0	119	/
16	/	/	104
17	19	117	97
18	/	/	103
19	31	97	105
20	3	105	100

Other results follow:
No.	structure	HSV augment	HSV augment primary fold	PKD1 inh	GALR2 ag
21	Cc1cccc(OCCSc2cc(C)nc(N)n2)c1	i	1	1	-0.4
22	NC(=O)[C@H]1CC2(CC(c3cccc(NC(=O)[C@H]4CCC(=O)N4)c3)=NO2)CN1C(=O)c1cc([N+](=O)[O-])cc([N+](=O)[O-])c1 (stereo partly drawn)	i	0.87	/	/
23	CCOC(=O)c1sc(NC(=O)c2c(C)noc2C)c(C(=O)OCC)c1C	/	/	-12	1.7
24	CCOC(=O)Nc1ccc2nc(Sc3ccc(Cl)cc3)sc2c1	i	0.81	/	/
25	CCCC(c1nnnn1Cc1ccc(F)cc1)N1CCN(C2CCCCC2)CC1 (stereo not drawn)	i	0.95	-10	-1.1
26	CC(C)CCNC(=O)COc1ccc(N(C)S(=O)(=O)c2ccc(F)cc2)cc1	i	1.1	4	/
27	COc1ccc(/C(C)=N/OC/C(O)=C(\C#N)c2nc3ccccc3[nH]2)cc1	i	1.1	14	-1.6
28	CS(=O)(=O)Nc1nnc(SCC(=O)N(c2ccccc2)c2ccccc2)s1	i	1.1	12	-2.8
29	C/C=C(\C)C(=O)NCCN1C2=NC[C@H](C(C)C)N2C[C@@H]1Cc1ccc(OC)cc1	i	1.2	11	/
30	CC1CCCN(S(=O)(=O)c2ccc(NC(=O)CN3CCN(C)CC3)cc2)C1 (stereo not drawn)	i	0.42	-2	-0.6

No.	Insulin prom inh	Insulin prom inh cell count	RGS16-Gao HTS
21	/	/	97
22	/	/	100
23	32	63	/
24	/	/	102
25	/	/	103
26	/	/	106
27	/	/	88
28	58	49	46
29	/	/	95
30	-174	127	107

(listing goes on)
No.	structure	HSV augment	HSV augment primary fold	PKD1 inh	GALR2 ag
31	CCC(=O)Nc1ccc(OC)cc1OC	i	0.93	-1	-1.1
32	CN(C(=O)COC(=O)CNC(=O)C12CC3CC(CC(C3)C1)C2)C1CCS(=O)(=O)C1 (stereo not drawn)	i	1	-3	0.2
33	COC(=O)C1=C(C)N(CCCC(=O)O)C(=O)NC1c1cc2c(cc1[N+](=O)[O-])OCO2 (stereo not drawn)	i	0.66	4	-0.3
34	CC(C)CCN1CCN(C2CCN(c3ccccc3)CC2)CC1CCO (stereo not drawn)	i	1	9	/
35	CC(C)c1nnc(NC(=O)CCCCCN2C(=O)C3C4C=CC(C4)C3C2=O)s1 (stereo not drawn)	i	0.84	11	-0.9
36	Brc1ccc(C2=Nc3ccccc3C(c3ccncc3)=NN2)cc1	i	0.94	-8	/
37	CCOC(=O)c1oc2c(CN3CCN(CCO)CC3)c(O)c(CC)cc2c(=O)c1-c1nc2ccccc2s1	i	1	-1	/
38	O=[N+]([O-])c1cc(Cl)ccc1N1CCN(c2ccccc2O)CC1	i	0.96	-9	/
39	COc1ccc(-n2cnnc2SCC(=O)N(C)C2CCS(=O)(=O)C2)cc1 (stereo not drawn)	i	0.84	-14	0.6
40	O=C(CS(=O)(=O)c1cccc(Cl)c1)Nc1ccccc1Cl	i	0.96	-7	-2.1

No.	Insulin prom inh	Insulin prom inh cell count	RGS16-Gao HTS
31	10	134	131
32	-38	127	111
33	29	69	105
34	/	/	103
35	/	/	101
36	/	/	98
37	/	/	102
38	-31	72	102
39	/	/	93
40	0	143	99

Later entries
No.	structure	HSV augment	HSV augment primary fold	PKD1 inh	GALR2 ag
41	CCOC(=O)C(C)Sc1nc(=O)n2cccc(C)c2n1 (stereo not drawn)	i	0.97	2	/
42	C=CCC(O)c1c(-c2ccccc2)nn(C)c1Cl (stereo not drawn)	/	/	6	/
43	COCc1cc(/C=N\NC(=O)Cc2ccc(OC)cc2)ccc1OC	i	0.91	-6	-2.4
44	CCOC(=O)C1CCCN(S(=O)(=O)c2ccc(Br)s2)C1 (stereo not drawn)	i	0.95	-2	-0.7
45	CC(=O)c1ccc(NC(=O)C2CCCN(S(=O)(=O)c3c(C)[nH]c(=O)[nH]c3=O)C2)cc1 (stereo not drawn)	i	0.96	3	/
46	COc1cc2cc(C#N)c(SCC(=O)N3CCOCC3)nc2cc1OC	i	0.83	1	-0.1
47	CCOC(=O)CC1C(=O)NCCN1C(=O)NC1CCCCC1 (stereo not drawn)	i	0.96	-6	-0.2
48	Cc1ccc(C)c(-n2cc(-c3ccc(Cl)cc3)nc2SCC(=O)NC2CCS(=O)(=O)C2)c1 (stereo not drawn)	i	0.94	-6	-0.6
49	CCCCN1C2=NCCCN2c2cc(C)c(C)cc21	/	/	4	-3.2
50	Cc1noc(C)c1COC(=O)c1ccc2c(c1)OCO2	i	0.98	6	-0.8

No.	Insulin prom inh	Insulin prom inh cell count	RGS16-Gao HTS
41	/	/	105
42	8	109	78
43	50	112	21*
44	16	150	104
45	/	/	100
46	-9	121	101
47	38	116	100
48	/	/	51
49	/	/	97
50	-36	70	87

Further entries:
No.	structure	HSV augment	HSV augment primary fold	PKD1 inh	GALR2 ag
51	CCOC(=O)c1ccc(Nc2ncnc3ccccc23)cc1	i	0.84	0	/
52	COC(=O)c1ccccc1NC(=O)CSc1n[nH]c(-c2cccnc2)n1	i	0.98	-2	/
53	CC/C(C)=N/Oc1nc(C)cc(C)n1	i	0.88	/	/
54	CCCCNC(=S)NNC(=O)CCn1nc(C)c(Br)c1C	i	0.97	7	-1.4
55	O=C1NC(=O)c2c(NC(=O)C3CCCO3)cccc21 (stereo not drawn)	i	0.98	11	-1.4
56	Cc1cc(C)c2nc(-c3ccccn3)cc(C(=O)Nc3cc(C)on3)c2c1	i	0.77	1	-1.5
57	Oc1cccc(NC(=S)N=Nc2c(O)[nH]c3ccccc23)c1	i	0.94	/	/
58	CC(=O)Nc1ccc(S(=O)(=O)NCCc2ccccc2)cc1	i	1	3	-0.8
59	O=C(Nc1ccc(Cl)cn1)C1CCCN1S(=O)(=O)c1ccc(Cl)cc1 (stereo not drawn)	/	/	-8	-2.5
60	Cc1cccc(/C=C2\CCC(=C3SCCCS3)C2=O)c1	i	1.1	-1	-0.3

No.	Insulin prom inh	Insulin prom inh cell count	RGS16-Gao HTS
51	-21	112	108
52	19	95	102
53	/	/	99
54	/	/	106
55	-60	83	108
56	5	108	99
57	/	/	101
58	-11	116	99
59	/	/	101
60	/	/	97

Remaining list, next part
No.	structure	HSV augment	HSV augment primary fold	PKD1 inh	GALR2 ag
61	COc1ccc(N(CC(=O)Nc2ccc(OC)cc2OC)S(=O)(=O)c2ccccc2)cc1	i	0.95	-2	/
62	CC(=O)OCC1(C)CN(c2ccccc2)N(C(=O)c2ccc(C(C)(C)C)cc2)C1=O (stereo not drawn)	i	0.94	-12	/
63	O=C(Nc1ccc(-c2cn3c(n2)SCC3)cc1)c1ccc2ccccc2n1	i	0.99	4	/
64	Cc1ccc(C(=O)NNC(=O)CSc2nnc(-c3ccncc3)n2C)cc1	i	0.84	3	-2.2
65	CCOC(=O)c1c(NC(=O)C2C3C=CC(CC3)C2C(=O)O)sc(C)c1C (stereo not drawn)	i	1	-4	1.5
66	CC(C)CNC(=S)NC1CCCC1	i	0.78	-1	-1.6
67	O=C(CSc1nc(-c2ccccc2)c(-c2ccccc2)[nH]1)Nc1nccs1	i	0.93	-2	-0.2
68	Cn1c(CC(=O)Nc2ccccc2)c(Sc2ccccc2)c2ccccc21	i	0.95	0	-1.5
69	Cc1cc(N2CCN(C(=O)OC(C)(C)C)CC2)n2ncnc2n1	i	0.89	-12	-1.1
70	CC(NC(=O)NC1CCCCC1)c1ccc2c(c1)OCO2 (stereo not drawn)	i	0.97	-3	/

No.	Insulin prom inh	Insulin prom inh cell count	RGS16-Gao HTS
61	-7	107	131
62	/	/	101
63	/	/	98
64	-20	75	105
65	14	154	106
66	-27	118	106
67	/	/	115
68	-33	115	105
69	-43	126	97
70	32	79	103

(next part)
No.	structure	HSV augment	HSV augment primary fold	PKD1 inh	GALR2 ag
71	CCOC(=O)CC1NC(=O)c2ccccc21 (stereo not drawn)	i	0.94	-10	0.3
72	CC(=O)N1CN(CCCn2ccnc2)Cc2c1sc1c2CCCC1	i	1	0	-3.6
73	O=C(NCc1cccs1)c1cc(C2CC2)on1	i	0.67	-5	-0.2
74	COc1ccccc1OCC(=O)Nc1ccccn1	i	1.1	-6	-0.4
75	Cc1ccc(OCC(O)CNCc2ccccc2)cc1C (stereo not drawn)	i	0.85	/	/
76	CN(C)c1nc(NCc2ccccc2)nc(SCC(=O)Nc2ccccc2)n1	i	0.58	6	-3.4
77	CCN(CC)S(=O)(=O)c1ccc(O)c(NC(=O)c2ccc(N3CCOCC3)c([N+](=O)[O-])c2)c1	i	0.9	-9	-1.4
78	N/C(=N\OC(=O)Cc1ccccc1[N+](=O)[O-])c1ccccn1	i	0.86	-9	/
79	CCOC(=O)/C(C#N)=C/c1cc2cc(C)c(C)cc2nc1Cl	i	0.99	/	/
80	CCOC(=O)CSc1cc(CSc2ccccc2)nc(-c2ccccc2)n1	i	1	6	-3.4
81	COc1cc2c(cc1OC)CN(CC(=O)Nc1ccccc1SC)CC2	i	1	-7	/

No.	Insulin prom inh	Insulin prom inh cell count	RGS16-Gao HTS
71	-49	63	95
72	/	/	108
73	/	/	104
74	/	/	97
75	/	/	130
76	/	/	102
77	6	120	100
78	8	125	101
79	/	/	108
80	22	67	86
81	-42	81	113

Whole records, quoted from the list. Screens in order: HSV augment	HSV augment primary fold	PKD1 inh	GALR2 ag	Insulin prom inh	Insulin prom inh cell count	RGS16-Gao HTS
`COc1cc2c(cc1OC)CN(CC(=O)Nc1ccccc1SC)CC2` reads i	1	-7	/	-42	81	113
`CCOC(=O)/C(C#N)=C/c1cc2cc(C)c(C)cc2nc1Cl` reads i	0.99	/	/	/	/	108
`Cc1ccc(OCC(O)CNCc2ccccc2)cc1C` (stereo not drawn) reads i	0.85	/	/	/	/	130
`CN(C)c1nc(NCc2ccccc2)nc(SCC(=O)Nc2ccccc2)n1` reads i	0.58	6	-3.4	/	/	102

From PubChem BioAssay
